Source: PubChem BioAssay (National Center for Advancing Translational Sciences (NCATS))
TRPML1 ag: qHTS for Agonists of the Human Mucolipin Transient Receptor Potential 1 (TRPML1); Mucolipin-1 (Homo sapiens), Q9GZU1; TRPML1-expressing cells, Ca2+ dye fluorescence, FDSS; host cell line not named in the record; reference of the full effect not given here; activation, % (concentration not given with the values); 410,000 tested, 0.12% active; AID 624414, 2012; in the data active = activation above about 50%; inconclusive = about 30% to 50%; inactive = below about 30%; also: 0% is about no effect; the text of the record puts the active cut at 80%
Target sequence (Q9GZU1 whole entry, looked up): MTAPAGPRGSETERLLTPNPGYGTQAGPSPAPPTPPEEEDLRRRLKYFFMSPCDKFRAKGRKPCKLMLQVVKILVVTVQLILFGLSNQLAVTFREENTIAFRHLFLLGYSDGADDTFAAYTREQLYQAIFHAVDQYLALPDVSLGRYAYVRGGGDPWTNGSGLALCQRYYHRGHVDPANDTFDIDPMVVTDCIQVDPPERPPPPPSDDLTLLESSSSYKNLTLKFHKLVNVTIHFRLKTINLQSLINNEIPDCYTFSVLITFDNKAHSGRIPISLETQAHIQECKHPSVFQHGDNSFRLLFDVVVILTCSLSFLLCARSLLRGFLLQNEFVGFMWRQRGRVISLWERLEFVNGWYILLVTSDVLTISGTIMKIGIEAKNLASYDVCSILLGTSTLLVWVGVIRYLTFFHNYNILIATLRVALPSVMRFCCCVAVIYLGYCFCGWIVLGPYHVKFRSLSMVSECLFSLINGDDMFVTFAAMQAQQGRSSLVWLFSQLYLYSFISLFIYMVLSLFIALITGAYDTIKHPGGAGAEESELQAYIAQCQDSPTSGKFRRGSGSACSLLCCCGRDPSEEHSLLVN
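Cells: TRPML1-DL, 1X Tet inducer, ~16 h at 37 degrees C/5% CO2. Dye: ABD Ca8 no-wash + quencher, 45-90 min RT. Read: 10 s baseline, compound add, 110 s agonist phase; 54-4 EC80 (4uM final), 110 s antagonist phase.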
Starred values were filed as active, the others as inactive. Only part of the results is shown, so the mix of outcomes need not match the whole.

Sample of the layout, six compounds:
#	molecule	TRPML1 ag
1	CN(C)c1ccc(-c2c(C3C4C=CCCC4(C)C(=O)N3Cc3ccccc3)ccc3ccccc23)cc1 (stereo not drawn)	1.2
2	CC(=O)OCC(NC(=O)C(C)NC(=O)OC(C)(C)C)C1OC(n2ccc(=O)[nH]c2=O)C(OC(C)=O)C1OC(C)=O (stereo not drawn)	-0.2
3	CC12CCC(/C(=N/O)C1=O)C2(C)C (stereo not drawn)	0.4
4	CC(C)(C)n1ncc2c(=O)n(Cc3ccc(F)cc3)cnc21	0.9
5	C(=C1C=c2ccccc2=C1)c1ccc(N=Nc2ccc(C=C3C=c4ccccc4=C3)cc2)cc1	-0.1
6	COc1ccc(SC[C@H](C)CN2CC[C@H](O)CCC2=O)cc1	8.5

The whole of this part, from the start:
#	molecule	TRPML1 ag
1	CN(C)c1ccc(-c2c(C3C4C=CCCC4(C)C(=O)N3Cc3ccccc3)ccc3ccccc23)cc1 (stereo not drawn)	1.2
2	CC(=O)OCC(NC(=O)C(C)NC(=O)OC(C)(C)C)C1OC(n2ccc(=O)[nH]c2=O)C(OC(C)=O)C1OC(C)=O (stereo not drawn)	-0.2
3	CC12CCC(/C(=N/O)C1=O)C2(C)C (stereo not drawn)	0.4
4	CC(C)(C)n1ncc2c(=O)n(Cc3ccc(F)cc3)cnc21	0.9
5	C(=C1C=c2ccccc2=C1)c1ccc(N=Nc2ccc(C=C3C=c4ccccc4=C3)cc2)cc1	-0.1
6	COc1ccc(SC[C@H](C)CN2CC[C@H](O)CCC2=O)cc1	8.5
7	COc1ccc2nc3c(cc2c1)Cn1c-3nc2ccccc2c1=O	0.7
8	OC(CN1CCCC1)c1ccccc1 (stereo not drawn)	-0.1
9	CC(C)(C)OC(=O)N1C2C=CC1C1=COCCN1C2=O (stereo not drawn)	-0.3
10	CC(C)(C)n1ncc2c(=O)n(Cc3cccc(OC(F)(F)F)c3)cnc21	1.0
11	COc1ccc(-c2ccc(OC)c(C3C4C=CCC(C)C4C(=O)N3Cc3ccccc3)c2)cc1C (stereo not drawn)	0.8
12	CCC[C@H]1COCCS(=O)(=O)N1Cc1ccc(Br)cc1	-0.3
13	CCCC[C@H]1C2=C3[C@@H](CC(C(=O)OC)=C[C@@H](C(=O)OC)[C@H]3C(C)(C)C2=O)n2c(=O)n(C)c(=O)n21	1.0
14	COC(=O)/C=C/c1ccc2c(c1)S(=O)(=O)N(C1CCCC1)[C@H]2CC(=O)OC	1.4
15	COC(=O)C1=C[C@@H](C(=O)OC)C2C3=C(C(=O)[C@@]2(C)NC(=O)c2ccccc2)[C@H](C)n2c(=O)n(C)c(=O)n2[C@@H]3C1 (stereo partly drawn)	0.7
16	CCCCCCCCCCCCCCCC[n+]1ccc(/C=C/c2c(C)[nH]c3ccccc23)cc1	5.1
17	CCCCN(CCCC)c1ccc(/C=C/c2ccnc3ccccc23)cc1	15
18	C(=C\c1ccnc2ccccc12)/c1ccnc2ccccc12	-1.2
19	C[C@H]1C=CC(=O)C[C@H]1c1c(F)cccc1Cl	0.2
20	CCCCCCCCCCCCCCCC[n+]1ccc(CC(O)c2c(C)[nH]c3ccccc23)c2ccccc21 (stereo not drawn)	1.0
21	O=C1COCCN1	0.4
22	O=[N+]([O-])c1cccc(/C=C/c2ccccc2)c1	-0.3
23	CC(=O)c1ccc(-c2cccc(C3C4C=CCCC4(C)C(=O)N3Cc3ccccc3)c2)cc1 (stereo not drawn)	0.7
24	CC(=O)Nc1ccc(/C=C/c2ccccn2)cc1	-0.1
25	CN(C)c1ccc(/C=C/c2ccc3cc(N(C)C)ccc3n2)cc1	8.9
26	CC(C)(C)n1ncc2c(=O)n(Cc3ccc(C(=O)c4ccccc4)cc3)cnc21	2.1
27	CCCCCCCCN1[C@@H](CC(=O)O)c2ccc(/C=C/C(=O)O)cc2S1(=O)=O	-0.2
28	O=C(NCCN1CCOCC1)C1(C(F)(F)F)CC(CCCO)CCCO1 (stereo not drawn)	1.7
29	Cc1ccc2cccc(O)c2n1	0.1
30	O=C(C[n+]1cccc2cc(Cl)ccc21)c1ccc(Br)cc1	8.7
31	CC[Si](CC)(CC)O[C@H]([C@@H](C)COCOC)[C@@H](C)COCc1ccc(OC)cc1	0.5
32	Cc1c(Cn2cnc3c(cnn3C(C)(C)C)c2=O)cccc1C(F)(F)F	1.1
33	O=Cc1ccc(Cl)cc1	-0.2
34	Cc1cc(N(C)C)cc(C)c1/C=C/c1ccnc2ccccc12	4.5
35	COc1ccc(C2/C=C\CN(S(=O)(=O)CC34CCC(CC3=O)C4(C)C)CC(=O)N2Cc2ccc(F)cc2)cc1 (stereo not drawn)	0.6
36	CCCCN1CC[C@H]2C=CC[C@@H](C(=O)NC3CCCCC3)[C@H]2C1=O	-0.5
37	CCCCCCCCCC[n+]1ccc(/C=C/c2c[nH]c3ccccc23)cc1	68*
38	Cc1ccc2c(c1)C1(C=CC(=O)C=C1)CC(=O)N2C	4.6
39	COc1ccc(C2C=C3CNS(=O)(=O)C3CC2OC(=O)c2cccs2)cc1 (stereo not drawn)	2.2
40	O=C(NCc1ccccc1)C1(C(F)(F)F)C/C(=C/Cc2ccccc2)CCCO1 (stereo not drawn)	0.9

Laid out differently: four of the compounds above
36: CCCCN1CC[C@H]2C=CC[C@@H](C(=O)NC3CCCCC3)[C@H]2C1=O
  TRPML1 ag: -0.5

37: CCCCCCCCCC[n+]1ccc(/C=C/c2c[nH]c3ccccc23)cc1
  TRPML1 ag: 68*

38: Cc1ccc2c(c1)C1(C=CC(=O)C=C1)CC(=O)N2C
  TRPML1 ag: 4.6

39: COc1ccc(C2C=C3CNS(=O)(=O)C3CC2OC(=O)c2cccs2)cc1 (stereo not drawn)
  TRPML1 ag: 2.2

Next records
#	molecule	TRPML1 ag
41	CCCC/C=C/[C@H](c1ccccc1)[C@H](CO)Cc1ccccc1	3.2
42	Cc1c([N+](=O)[O-])cnc2ccccc12	-0.7
43	Clc1cccc[n+]1CCCC[n+]1ccccc1Cl	-0.4
44	CC(C)(C)OC(=O)N1C=CCC1CN1C(=O)COCC1=O (stereo not drawn)	0.1
45	CC1CC=CC2C1C(=O)N(Cc1ccccc1)C2c1ccc(Br)cc1F (stereo not drawn)	1.4
46	CC/C=C/[C@@H](c1ccccc1)[C@H](C)C(O)CC(=O)SC(C)(C)C (stereo partly drawn)	20
47	COc1ccc(-c2ccc(C(C)=O)cc2)cc1C1C2C=CCCC2(C)C(=O)N1Cc1ccccc1 (stereo not drawn)	2.5
48	CC(C)(C)n1ncc2c(=O)n(Cc3cc(F)c(F)cc3Cl)cnc21	0.7
49	CCOC(=O)N1CCN([N+]([O-])=NOc2cc(O/N=[N+](\[O-])N(C)C)c([N+](=O)[O-])cc2[N+](=O)[O-])CC1	0.5
50	Cc1cc(Cn2cnc3c(cnn3C(C)(C)C)c2=O)ccc1F	0.7
51	COC(=O)C1=C[C@@H](C(=O)OC)C2C3=C(C(=O)[C@@]2(C)NC(=O)c2ccccc2)[C@H](C)n2c(=O)n(-c4ccccc4)c(=O)n2[C@@H]3C1 (stereo partly drawn)	0.0
52	COC(=O)c1ccc(-c2ccc(C3C4C=CCC(C)C4C(=O)N3Cc3ccccc3)c(F)c2)cc1 (stereo not drawn)	0.4
53	Cc1csc[n+]1CC(=O)c1ccc(I)cc1	-0.1
54	C=C1CCN(C(CC(C)C)C(=O)NCc2cc(OC)c(OC)c(OC)c2)S(=O)(=O)c2ccccc21 (stereo not drawn)	-0.1
55	CC(C)(C)n1ncc2c(=O)n(Cc3ccc(SC(F)(F)F)cc3)cnc21	1.6
56	CCCCCCCCCCCCCCCCCCN(CCCCCCCCCCCCCCCCCC)c1ccc(C=O)cc1	-0.2
57	CCCCCCCCCC[n+]1cccc2cc(Br)ccc21	-0.3
58	CCCCCCC[n+]1ccc(C)c2ccccc21	0.2
59	Cc1ccc(SC[C@H](Cc2ccccc2)N2CC[C@@H](NC(=O)OCc3ccccc3)CCC2=O)cc1	-0.2
60	COc1ccc(C2/C=C\CN(S(=O)(=O)c3ccc(C)cc3)C(C)C(=O)N2Cc2ccc(F)cc2)cc1 (stereo not drawn)	0.6
61	COc1ccc(C2/C=C\CN(S(=O)(=O)c3ccc(C)cc3)C(Cc3ccccc3)C(=O)N2Cc2ccc(F)cc2)cc1 (stereo not drawn)	1.6
62	O=C(C[n+]1cccc2cccc(O)c21)c1ccc(Cl)cc1	7.4
63	CC(=O)Nc1ccn(C2CC3OCC(NC(=O)C(NC(=O)OC(C)(C)C)C(C)OCc4ccccc4)C3O2)c(=O)n1 (stereo not drawn)	0.7
64	CCOC(=O)C[C@H]1c2cc(F)ccc2S(=O)(=O)N1Cc1cc(OC)c(OC)c(OC)c1	-1.1

Next section; the last three above are carried over.
#	molecule	TRPML1 ag
62	O=C(C[n+]1cccc2cccc(O)c21)c1ccc(Cl)cc1	7.4
63	CC(=O)Nc1ccn(C2CC3OCC(NC(=O)C(NC(=O)OC(C)(C)C)C(C)OCc4ccccc4)C3O2)c(=O)n1 (stereo not drawn)	0.7
64	CCOC(=O)C[C@H]1c2cc(F)ccc2S(=O)(=O)N1Cc1cc(OC)c(OC)c(OC)c1	-1.1
65	CC(C)(C)OC(=O)N1CCCC1C(=O)NC1COC2CC(n3cc(F)c(=O)[nH]c3=O)OC12 (stereo not drawn)	1.0
66	CNc1ccc(C(=O)Oc2cc(O/N=[N+](\[O-])N(C)C)c([N+](=O)[O-])cc2[N+](=O)[O-])cc1	1.0
67	Cc1ccc(SCC(Cc2ccccc2)N2CCN(CC(C)C)CCC2=O)cc1 (stereo not drawn)	0.1
68	Cc1cc(N(C)C)cc(C)c1C=O	-1.0
69	COC(=O)[C@H](Cc1ccccc1)N(Cc1ccc(C)cc1)S(C)(=O)=O	0.5
70	COc1ccc(-c2ccc(OC)c(C3C4C=CCC(C)C4C(=O)N3Cc3ccccc3)c2)cc1OC (stereo not drawn)	1.5
71	O=C(Nc1nccs1)[C@@H]1CC=C[C@@H]2CCN(Cc3ccc(Cl)c(Cl)c3)C(=O)[C@@H]21	0.0
72	O=S1(=O)CCO[C@H]2CCCC[C@@H]2N1Cc1ccccc1Br	-1.2
73	C=C1CCN(C(Cc2ccccc2)C(=O)NCc2ccc(Cl)c(Cl)c2)S(=O)(=O)c2ccccc21 (stereo not drawn)	2.3
74	CC[N+](C)(C)c1ccc(/C=C/c2ccnc3ccccc23)cc1	-0.4
75	COc1cc(C)c2ccccc2n1	-0.9
76	CC(=O)c1ccc(C2CC34CN(Cc5cccc(Cl)c5)S(=O)(=O)C3CC2O4)cc1 (stereo not drawn)	3.3
77	CC1C(=O)N(S(=O)(=O)c2ccc([N+](=O)[O-])cc2)[C@H]1c1ccc2ccccc2c1 (stereo partly drawn)	0.5
78	CC[N+](C)(C)c1ccc(/C=C/c2ccncc2)cc1	7.0
79	O=C1[C@H](Cc2ccccc2)NC/C=C\C[C@H](c2ccc(Cl)cc2)N1Cc1ccc(Cl)cc1	0.6
80	COc1ccc(OC)c(/C=C/c2cc3ccccc3cn2)c1	-0.6
81	CN(C)c1ccc(C=O)c(O)c1	-0.6
82	CCCC[C@H]1CCCO[C@@](C(=O)NCc2ccc(C)o2)(C(F)(F)F)C1	0.3
83	C(=C\c1ccc2ccccc2n1)/c1ccc2ccccc2n1	-0.3
84	CC(C)(C)n1ncc2c(=O)n(Cc3cccc(Oc4ccccc4)c3)cnc21	1.2
85	C=CCCN(Cc1ccc(OC)cc1)S(=O)(=O)c1ccccc1Br	3.7
86	CC(C)[C@H]1COCCS(=O)(=O)N1Cc1cccc([N+](=O)[O-])c1	-0.6
87	Cc1ccnc2ccc(N)cc12	-0.4
88	COc1ccc(-c2ccc(C3C4C=CCCC4(C)C(=O)N3Cc3ccccc3)c(F)c2)cc1OC (stereo not drawn)	0.5
89	Cc1cnc2ccc3ccccc3c2c1C	-0.8
90	COc1ccc(-c2cc(C3C4C=CCCC4(C)C(=O)N3Cc3ccccc3)ccc2F)cc1 (stereo not drawn)	1.4
91	Nc1cnccn1	-0.5
92	CCCN1CCC(=O)N(CCC#N)CC1	-0.3
93	O=Cc1cccc(C=O)c1	-0.3
94	COC(=O)C(C(C)C)N1CC(=O)c2ccccc2S1(=O)=O (stereo not drawn)	0.6
95	COc1ccc(CN2CCC(=O)c3ccccc3S2(=O)=O)cc1	1.7
96	Cc1ccc(-c2cc(C3C4C=CCCC4(C)C(=O)N3Cc3ccccc3)ccc2F)cc1 (stereo not drawn)	0.5
97	COc1cc(OC)c2ccc(=O)oc2c1C(CC(=O)N1CCCCC1)c1ccc2c(c1)OCO2 (stereo not drawn)	6.3
98	Cc1cc2ccccc2cn1	-0.3
99	CC1CC=CC2C1C(=O)N(Cc1ccccc1)C2c1ccc2ccccc2c1C=Cc1ccccc1 (stereo not drawn)	2.0
100	CCOC(=O)CN(Cc1ccccc1)C(=O)OC(C)(C)C	0.2
101	CC(=O)ON(C(C)=O)c1ccc(/C=C2/C=Cc3ccccc32)cc1	-0.9
102	CC(=O)Nc1ccc(SCC(CC(C)C)N2CCN(CCc3ccccc3)CCC2=O)cc1 (stereo not drawn)	0.1
103	c1cc2c3c(c1)CCCN3CCC2	-0.2
104	CC(C)(C)n1ncc2c(=O)n(Cc3ccc(SC(=O)O)cc3Cl)cnc21	0.8
105	COC(=O)C1N2C(=O)N(C)[C@H](C(=O)OC)[C@H]2SC1(C)C (stereo partly drawn)	-0.4
106	CN(C)c1ccc(C=O)c(Cl)c1	-0.5
107	CC[N+]1(CC(=O)c2ccc(Cl)cc2)CCCCC1	-0.5
108	O=C(NCc1ccccn1)C1(C(F)(F)F)CC(CCCO)CCCO1 (stereo not drawn)	1.2
